GIV-Gai inh – GIV-Galpha-i interaction inhibition. Galpha-i3/FITC-GIV peptide fluorescence polarization, 90 min; stronger effect = lower value; scaled: aluminum fluoride 0%, vehicle 100%. actives 0.42% (n = 210,000). percent of control (FP), % (no concentration beside the values);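 active = replicate mean at 85% of control or lower, very high polarization wells dropped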;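 note: wells of about 15 µL received 100 nL stock; the first replicate is given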
Target sequence (P08753 whole entry, looked up): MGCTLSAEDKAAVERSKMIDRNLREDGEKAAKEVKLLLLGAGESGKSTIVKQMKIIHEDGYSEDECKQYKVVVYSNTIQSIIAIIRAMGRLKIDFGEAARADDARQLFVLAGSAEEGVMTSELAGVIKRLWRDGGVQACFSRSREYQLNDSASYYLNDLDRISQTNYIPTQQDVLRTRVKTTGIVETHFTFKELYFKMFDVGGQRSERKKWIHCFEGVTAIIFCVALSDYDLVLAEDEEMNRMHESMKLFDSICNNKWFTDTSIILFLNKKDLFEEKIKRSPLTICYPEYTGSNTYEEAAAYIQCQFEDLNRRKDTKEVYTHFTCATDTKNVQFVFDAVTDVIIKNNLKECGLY
* hit, by the source's call. An excerpt; count on the stated rates, not on these rows.

structure,GIV-Gai inh
CC(C)(C)c1csc(-c2csc(S(=O)(=O)NCc3ccc(F)cc3F)c2)n1,107.7
CCNC(=S)N1CCN(CCNC2=CC(=O)CC(C)(C)C2)CC1,108.0
C=CCN1C(=O)/C(=C2/Sc3ccc(Cl)cc3N2CC)SC1=S,110.7
O=C(Nc1ccccc1C(F)(F)F)c1ccc(F)c(S(=O)(=O)N2CCc3ccccc32)c1,105.5
Cn1c(=O)c2c(nc3n(-c4ccccc4)c(-c4ccccc4)cn23)n(C)c1=O,103.5
CCc1nc2c(sc3nc(N4CCOCC4)c4c(c32)CC(C)(C)OC4)c(=O)o1,108.4
CCOC(=O)C1C(=O)NC(SCC(=O)Nc2ccccc2C)=C(C#N)C1c1ccccc1OCC (configuration not stated),109.4
COc1ccc(N2C(=O)C3ON(C4SC(=S)N(C)C4(C)C)C(c4cccc([N+](=O)[O-])c4)C3C2=O)cc1 (configuration not stated),105.1
O=C(NCCC1=CCCCC1)C1CCN(S(=O)(=O)c2ccc(-c3noc(C4CC4)n3)cc2)CC1,107.1
CCOc1ccc(NC(=O)c2ccc(-c3noc(C4CCCN(C(=O)c5ccccc5)C4)n3)cc2)cc1 (configuration not stated),101.2
O=C(Nc1ccc(F)cc1)C1CCN(Cc2cc3ccccc3n2Cc2cccc(F)c2)CC1,101.9
Cc1ccc2c(=O)c(-c3nc(-c4ccc(Cl)cc4)no3)cn(CC(=O)Nc3ccc(C(C)C)cc3)c2n1,166.7
CCOc1ccc(NC(=O)C2OC3OC4(CCCCC4)OC3C3OC4(CCCCC4)OC23)cc1 (configuration not stated),108.7
Cc1cc(C)cc(NC(=O)c2cc(S(=O)(=O)NC3CCCCC3)ccc2F)c1,114.2
Cc1ccc(NC(=O)C(=O)NCCN2CCN(C(=O)c3cccc(Br)c3)CC2)cc1,106.8
O=C1CN(Cc2ccccc2Cl)S(=O)(=O)c2ccccc2N1Cc1ccccc1,100.6
CNC(=O)c1c(NC(=O)CCSc2ccccc2)sc2c1CCC2,101.8
Cc1noc(C)c1C1CCCN1C(=O)Nc1ccc2c(c1)OCCO2 (configuration not stated),113.4
CCOc1ccc(S(=O)(=O)N2CCN(c3ccccc3F)CC2)c2cccnc12,114.5
COc1ccc(C2=NN(c3ccccc3)C(=O)/C2=C\c2cc(OC)c(OC)cc2OC)cc1,107.1

Retrieved by compound from the entries so far, 2 records:
structure,GIV-Gai inh
O=C(NCCC1=CCCCC1)C1CCN(S(=O)(=O)c2ccc(-c3noc(C4CC4)n3)cc2)CC1,107.1
CCOC(=O)C1C(=O)NC(SCC(=O)Nc2ccccc2C)=C(C#N)C1c1ccccc1OCC (configuration not stated),109.4

More results follow:
structure,GIV-Gai inh
CC1(C)OC2OC(C(=O)Nc3ccc(Cl)c(Cl)c3)C3OC(C)(C)OC3C2O1 (configuration not stated),101.5
Cc1c(C(=O)N2CCC(C)CC2)sc2ncnc(N3CCC(C)CC3)c12,114.3
Cn1c(=O)n(Cc2cccc(C(F)(F)F)c2)c(=O)c2c1ncn2Cc1ccccc1,100.5
CNc1nc(C(N)=O)c(NC(=O)CN2C(=O)C(C)Oc3ccccc32)s1 (configuration not stated),100.3
CCOC(=O)CC(=O)CSc1nc2sc(C(=O)OCC)c(C)c2c(=O)n1Cc1ccccc1OC,107.6
CCCCCCSc1nnc2c(n1)[nH]c1ccccc12,103.9
CC(C)(C)c1csc(-c2csc(S(=O)(=O)Nc3ccc(F)c(Cl)c3)c2)n1,103.7
CC(NC(=O)c1ccc(C2SCC(=O)N2Cc2ccccc2)cc1)c1ccccc1 (configuration not stated),105.0
COc1ccc(-c2cc(N3CCN(C(=O)Nc4ccccc4)CC3)ncn2)cc1,100.6
O=C(N/N=C/c1ccc(Sc2nnc(-c3ccccc3)n2-c2ccccc2)o1)c1ccc(Cl)cc1Cl,101.3
O=C(CN1C(=O)/C(=C2\SC(=S)N(CCS(=O)(=O)O)C2=O)c2ccccc21)Nc1cccc(Br)c1,99.3
Cc1ccc(S(=O)(=O)N2CC3c4ccccc4CCN3C2c2ccccc2)cc1 (configuration not stated),108.5
Cc1ccc(CNC(=O)C2CCN(c3cncnc3N3CCN(C)CC3)CC2)o1,103.4
CCCS(=O)(=O)c1c(S(=O)(=O)CCC)c2c3ccccc3ccn2c1C(=O)N/N=C/C=C/c1ccccc1,106.9
COc1ccc(C(=O)Nc2cccc(-c3cn4ccsc4n3)c2)cc1,101.2
COc1ccc(N2C(=O)C3C4c5ccccc5C(C=Nc5ccc(C)cc5)(c5ccccc54)C3C2=O)cc1 (configuration not stated),101.2
Cc1nn(-c2ccc(-c3ccccc3)nn2)c(C)c1S(=O)(=O)NCc1ccc2c(c1)OCO2,108.8
CCOC(=O)c1sc2ncnc(Nc3ccccc3F)c2c1C,108.1
COc1cc(OC)cc(C(=O)OCCN(C2=NS(=O)(=O)c3ccccc32)c2cccc(C)c2)c1,113.2
COc1ccc2nc(NC(=O)C3CC(=O)N(c4cccc(NC(C)=O)c4)C3)sc2c1 (configuration not stated),109.4

A different layout for 7 compounds above.
| GIV-Gai inh | Molecule |
| --- | --- |
| 108.5 | Cc1ccc(S(=O)(=O)N2CC3c4ccccc4CCN3C2c2ccccc2)cc1 (configuration not stated) |
| 107.1 | O=C(NCCC1=CCCCC1)C1CCN(S(=O)(=O)c2ccc(-c3noc(C4CC4)n3)cc2)CC1 |
| 114.5 | CCOc1ccc(S(=O)(=O)N2CCN(c3ccccc3F)CC2)c2cccnc12 |
| 113.4 | Cc1noc(C)c1C1CCCN1C(=O)Nc1ccc2c(c1)OCCO2 (configuration not stated) |
| 107.6 | CCOC(=O)CC(=O)CSc1nc2sc(C(=O)OCC)c(C)c2c(=O)n1Cc1ccccc1OC |
| 105.5 | O=C(Nc1ccccc1C(F)(F)F)c1ccc(F)c(S(=O)(=O)N2CCc3ccccc32)c1 |
| 113.2 | COc1cc(OC)cc(C(=O)OCCN(C2=NS(=O)(=O)c3ccccc32)c2cccc(C)c2)c1 |

The listing continues:
structure,GIV-Gai inh
CCOC(=O)c1sc2ncnc(Nc3ccc(F)cc3Cl)c2c1C,98.2
CC(=O)n1c2c(c3ccccc31)OC(N)=C(C#N)C2c1ccccc1C(F)(F)F (configuration not stated),112.8
CCCS(=O)(=O)c1c(S(=O)(=O)CCC)c2cc(-c3ccncc3)ccn2c1C(=O)N/N=C/c1ccc(N(C)C)cc1,109.0
O=C(NCCc1cscn1)[C@H]1CSCN1C(=O)c1cccc(F)c1,92.9
OC(c1ccccn1)C1CCN(CC2CCCCC2)CC1 (configuration not stated),105.8
O=C(Nc1ccc(Cl)cc1)C1CCCN(C(=O)c2ccccc2F)C1 (configuration not stated),102.2
CCN1CCCC1CNC(=O)c1sc2ncnc(N3CCN(c4ccccc4OC)CC3)c2c1C (configuration not stated),101.2
O=C(CSc1nnc2c3sc(N4CCCC4)nc3ncn12)N1CCN(c2ccc(F)cc2)CC1,105.7
CC(=O)C1=NN(c2ccc(Cl)cc2)C2(S1)c1ccccc1C(c1ccc(C(C)(C)C)cc1)=NN2c1ccccc1 (configuration not stated),105.1
O=C(O)c1cn(CCc2ccccc2)nc1S(=O)(=O)N1CCSCC1,105.6
CCCS(=O)(=O)c1c(S(=O)(=O)CCC)c2cc(-c3ccncc3)ccn2c1C(=O)N/N=C/c1c[nH]c2ccccc12,107.1
CC(=O)C1=NN(c2ccccc2C)C2(S1)SC(c1ccc(Br)cc1)(c1ccc(Br)cc1)c1ccccc12 (configuration not stated),103.9
Cc1ccc(C(=O)Nc2cnc(N3CCN(c4ccccc4Cl)CC3)c(C(=O)O)c2)cc1,105.2
COc1ccc(-c2nc(-c3ccc4c(c3)C(=O)c3ccccc3-4)c(-c3ccccc3)[nH]2)cc1,106.2
COC(=O)C1(Nc2c(Cl)cccc2Cl)/C(=C(\O)c2ccc(C)cc2)C(=O)C(=O)N1c1ccccc1 (configuration not stated),107.4
COc1cccc(C(=O)N2c3ccccc3N3C(c4c(C)c(Cl)c(C)c(Cl)c4C)=NON23)c1,106.4
CCC(=O)Nc1cccc(-c2noc(C3CCCN(C(=O)c4ccc(C(C)(C)C)cc4)C3)n2)c1 (configuration not stated),106.4
Cc1ccc(-c2csc(NC(=O)CSc3nnc4[nH]c(=O)c(C)nn34)n2)cc1,100.3
CCCCCn1c(SCC(=O)NCCc2ccccc2)nc2cc(C(=O)NCc3ccco3)ccc2c1=O,119.3
Oc1ccc(Br)cc1C1Nc2ccccc2C(c2ccccc2)(c2ccccc2)O1 (configuration not stated),108.1
COc1ccc(-c2csc3c(=O)n(C(C)C)cnc23)cc1,102.7
C=CCn1c(SCc2nc(-c3ccc(Br)cc3)no2)nc2cc3c(cc2c1=O)OCO3,104.8
COc1cccc(C2/C(=C(/O)c3ccc(Cl)cc3)C(=O)C(=O)N2CCO)c1 (configuration not stated),123.3
O=C(Nc1ccc2c(c1)OCO2)Nc1nccn(-c2ccc3c(c2)CCC3)c1=O,99.9
CCCCNC(=O)N(O)C1N(/N=C/c2ccco2)C(=S)SC1(C)C (configuration not stated),111.5
Cc1nc(-c2cc(S(=O)(=O)N3CCN(c4ccccc4F)CC3)c(C)s2)cs1,108.4
O=C(CSC1=NC(=O)C(Cc2ccccc2)C(=O)N1)Nc1cccc(Cl)c1 (configuration not stated),102.9
Cc1ccc2c(c1)C(C)CC(C)(C)N2C(=O)Nc1cccc(Cl)c1 (configuration not stated),104.9
CC(=O)c1cc2c(cc1NC(=O)c1cc3nc(-c4ccc5c(c4)OCO5)cc(C(F)(F)F)n3n1)OCO2,106.3
COc1ccc(-c2nc(-c3ccc4c(c3)sc3cc(-c5[nH]c(-c6ccc(OC)cc6)nc5-c5ccccc5)ccc34)c(-c3ccccc3)[nH]2)cc1,110.3
COc1cccc(N2CC(C(=O)Nc3nnc4n3CCS4)CC2=O)c1 (configuration not stated),98.4
Cc1ccc(N2C(=O)C(N3C(=O)c4c(Cl)c(Cl)c(Cl)c(Cl)c4C3=O)C2c2cccc(Br)c2)cc1C (configuration not stated),105.8
C=CCN(CC=C)S(=O)(=O)c1ccc(C(=O)Nc2ccc3c4c(cccc24)C(=O)N3CC)cc1,77.8*
CCOC(=O)c1sc2ncnc(NCc3ccccc3OC)c2c1C,107.3
Cc1ccc(C2=NC3(CCN(C)CC3)NC(c3cc(Br)ccc3O)C2)cc1 (configuration not stated),106.0
CCN(CC)c1cc(C)c2cc(NC(=O)CC3CCCC3)ccc2n1,108.4
O=C(CSc1nc2ccccc2s1)Nc1c(Cl)cccc1Cl,114.8
FC(F)(F)c1cccc(N=c2scc(-c3ccc(Cl)cc3)n2CCc2ccccc2)c1,106.8
CCCCOc1ccc(-c2nc(NC(=O)CC)c3c(=O)oc4ccccc4c3n2)cc1,109.2
Cc1ccc(NC(=O)CSc2ncnc3c(-c4ccccc4)c[nH]c23)cc1,105.2
CCOC(=O)c1c(NC(=O)CSc2nnc(CNC(=O)c3ccco3)n2-c2ccc(F)cc2)sc2c1CCCC2,106.3
Cc1nc(-c2cc(S(=O)(=O)NCc3cccnc3)c(C)n2C)sc1C(=O)N1CCCCC1,100.8
O=C(CSc1nnc2sc3ccccc3n12)Nc1ccc2ccccc2c1,104.1
Cc1nn(-c2ccccc2)c2sc(C(=O)Oc3ccc4sc(=O)oc4c3)cc12,112.0
CCOC(=O)C1=C(C)NC(C)=C(C(=O)OCC)C1c1cn(-c2ccccc2)nc1-c1ccc(OC)c(OC)c1,114.2
CCC[B-]1(CCC)N=C(N(C)C)Nc2[nH]c3ccccc3[n+]21,103.2
Cc1cc(S(=O)(=O)N2CCC(c3noc(-c4cccc(F)c4)n3)CC2)ccc1F,102.4
O=C1NC(c2cccc3ccccc23)Nc2sc3c(c21)CCCC3 (configuration not stated),119.3
CCOC(=O)c1ccc(-n2c(C)cc(/C=c3\sc4nc5ccccc5n4c3=O)c2C)cc1,103.7
CCN(CCCNC(=O)c1sc2ncccc2c1-n1cccc1)c1ccccc1,104.6
COc1ccc(C)cc1NC(=O)CCc1nc(CSc2nc3ccccc3s2)no1,108.2
COc1ccc(CCNc2ncnc3c2cnn3-c2cccc(C)c2)cc1OC,102.5
CCOc1ccc2nc(-n3nc(C)c4c3NC(=O)CC4c3cc(C)sc3C)sc2c1 (configuration not stated),99.1
COc1ccc(-c2cc(C(F)(F)F)n3nc(C(=O)N(C)CCc4ccccn4)cc3n2)cc1OC,114.2
CCCC(CCC)C(=O)Nc1c(C)nc2c(C)cccn2c1=O,103.4
Cc1noc(C)c1C1CCCN1C(=O)Nc1ccc2c(c1)OCO2 (configuration not stated),104.1
COc1ccc(CCNC(=O)c2sc3ncn(CC(=O)Nc4cccc(C(F)(F)F)c4)c(=O)c3c2C)cc1OC,100.9
COc1ccc(Br)cc1C1=N/C(=C\c2ccccc2C(F)(F)F)C(=O)O1,116.1
CCOC(=O)c1sc2nc(SCC(=O)NCCc3ccccc3)n(CC3CCCO3)c(=O)c2c1C (configuration not stated),113.3
O=C1CC(c2ccccc2Cl)c2c(ccc3ccccc23)N1 (configuration not stated),107.1

The list continues:
structure,GIV-Gai inh
Cc1cc(C)c(S(=O)(=O)NCCc2cn3ccsc3n2)c(C)c1,101.5
Fc1ccc(Nc2nc(NCC3CCCO3)nc3c2cnn3-c2ccccc2)cc1 (configuration not stated),103.5
Cc1ccccc1NC(=O)c1c(NC(=O)c2ccc(F)cc2)sc2c1CCCCC2,107.0
CCOC(=O)C1=C(C(=O)OCC)SC(=C2C(=S)C(C)(C)N(C(=O)CN3C(=O)CCC3=O)c3ccc(C)cc32)S1,102.3
O=C(NC1CCCCC1)N1CCN(c2cc(-c3ccccc3)ncn2)CC1,104.2
O=C(Nc1ccc(Oc2ccc3ccccc3c2Br)c(Cl)c1)c1cc(Cl)cc(Br)c1O,110.3
Cc1cc(C)c(C2C(=O)[C@H]3[C@@H](C2=O)N2CCCN2[C@@H]3c2ccccc2)c(C)c1 (some centres not stated),126.4
C=Cc1ccc(CSC2=NS(=O)(=O)c3ccccc3N2)cc1,145.2
